Lassa entry inh: inhibitors of Lassa virus binding or cell entry | Lassa virus pseudotype entry inhibition, cell reporter; control for the full effect not named in the record | Potency, µM (titrated, usually from 37.9 µM), without a hit: at the top dose activity change, negative = inhibition, actives largely listed as inhibitors | 300,000 tested, 1.2% active | AID 540256; active means well fitted inhibition curve with a large enough effect; inconclusive means small, poorly fitted or top-dose-only effect, or effect the other way; inactive means flat fitted curve, though single readings scatter; tested in HEK293 cells; also: % is scaled to controls: 0 for no effect and ±100 for the full control effect; nearly all actives have a fitted effect of over 50% in size; luciferase read-out
Cruzain noTriton: cruzain (T. cruzi) inhibition without detergent; P25779; purified cruzain, Z-FR-AMC fluorescence, no detergent; Potency, µM, inactives show max response, negative = inhibition, usual class: inhibitors; 200,000 tested, 2.3% active; AID 1476; active = well fitted curve in the direction sought with a large enough effect; inconclusive = small, poorly fitted or top-dose-only effect, or another doubt; inactive = no such curve, though single readings can be large; an effect the other way counts as inactive or inconclusive;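 also: plate controls were enzyme without inhibitor for no effect and buffer without enzyme for full effect; nearly all actives have a fitted effect of over 40% in size; top concentration of the series not given in the record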
Target sequence (P25779 123-467 limits assumed): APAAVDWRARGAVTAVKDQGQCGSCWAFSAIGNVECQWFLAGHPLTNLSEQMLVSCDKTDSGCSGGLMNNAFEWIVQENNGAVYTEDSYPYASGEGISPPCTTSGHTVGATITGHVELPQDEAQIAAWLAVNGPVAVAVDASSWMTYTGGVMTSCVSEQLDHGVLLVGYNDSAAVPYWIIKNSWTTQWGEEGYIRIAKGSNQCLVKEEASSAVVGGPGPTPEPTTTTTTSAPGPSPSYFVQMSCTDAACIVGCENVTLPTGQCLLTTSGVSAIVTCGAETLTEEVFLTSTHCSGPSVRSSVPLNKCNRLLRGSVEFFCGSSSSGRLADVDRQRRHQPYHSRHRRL
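Purified cruzain at 1.5 nM, pre-incubated 15 min with compound at room temperature in 100 mM sodium acetate pH 5.5, 5 mM DTT, 0.00005% Triton X-100. Reaction started with 2 uM Z-FR-AMC; AMC fluorescence increase over 60 s gives rate.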
Marburg entry inh: blocks Marburg virus binding to or entry into cells; 300,000 tested, 1.8% active; Marburg virus pseudotyped entry inhibition, cell reporter; control for the full effect not named in the record; about a third of the inactives were read at about 46 µM; Potency, µM (doses to about 37.8 µM), inactives show top-dose activity change, negative = inhibition, hits mostly inhibitors; active = well fitted inhibition curve with a large enough effect; inconclusive = small, poorly fitted or top-dose-only effect, or effect the other way; inactive = flat fitted curve, though single readings scatter; tested in HEK293 cells; about a fifth of its hits are not listed in these tables; also: % is scaled to controls: 0 for no effect and ±100 for the full control effect; luciferase read-out
SARS PLP yeast: blocks SARS-CoV papain-like protease in a yeast assay; 330,000 tested, 0.19% active; Potency, µM (doses to about 32.9 µM), for the others: at the top dose activity, positive = growth rescue; S. cerevisiae expressing SARS-CoV PLpro, growth rescue; control for the full effect not named in the record; AID 485353; also: 0% is about no effect; nearly all actives have a fitted effect of over 55% in size; growth read by luminescence after 48 h
RE007 growth inh: less growth of the S. pombe RE007 Vpr strain. S. pombe RE007 Vpr strain, BacTiter-Glo ATP luminescence, 24 h; control for the full effect not named in the record. Potency, µM (top dose mostly 92.2 µM), for the others: top-dose activity change, negative = less growth. 360,000 tested, 0.21% active; active = well fitted falling curve with a large enough effect; inconclusive = small, poorly fitted or top-dose-only effect; inactive = no such curve, though single readings can be large or run the other way;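 also: % is scaled to controls: 0 for no effect and ±100 for the full control effect; nearly all actives have a fitted effect of over 50% in size; the assay follows cell death caused by Vpr and the record does not say whether a fall means rescue or toxicity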
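Fission yeast RE007 carrying one integrated HIV-1 vpr copy, seeded at OD 0.01 in PMG+AL medium with 23 nL pinned compound. Grown 24 h at 30 degrees; viability read by BacTiter-Glo luminescence after 5 min.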
Cruzain Triton: inhibitors of Trypanosoma cruzi cruzain with detergent. P25779. purified cruzain, Z-FR-AMC fluorescence, 0.01% Triton. Potency, µM, for inactives: max response, negative = inhibition, usual class: inhibitors. 200,000 tested, 0.43% active; active = well fitted curve in the direction sought with a large enough effect; inconclusive = small, poorly fitted or top-dose-only effect, or another doubt; inactive = no such curve, though single readings can be large; an effect the other way counts as inactive or inconclusive;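 also: plate controls were neutral wells for no effect and buffer without enzyme for full effect; nearly all actives have a fitted effect of over 40% in size; top concentration of the series not given in the record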
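Enzyme 1.5 nM, Z-FR-AMC 2 uM, NaOAc 100 mM pH 5.5, DTT 5 mM, Triton X-100 0.01%; 15 min RT compound preincubation; kinetic ex360/em450, 60 s delta.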
StopGo reporter: FMDV 2A StopGo reporter, luciferase signal; human cells with a luciferase reporter of 2A StopGo recoding; control for the full effect not named in the record; Potency, µM (doses to about 57.9 µM), for the others: top-dose signal change, negative = less light; 410,000 tested, 1.2% active; AID 1159524; active = well fitted falling curve with a large enough effect; inconclusive = small, poorly fitted or top-dose-only effect; inactive = no such curve, though single readings can be large or run the other way; tested in HEK293T cells; also: % is scaled to controls: 0 for no effect and ±100 for the full control effect; nearly all actives have a fitted effect of over 45% in size; luciferase light after 4 h
NS1 function inh: influenza NS1 inhibition; S. cerevisiae slowed by influenza A NS1, growth recovery by OD600; Potency, µM (series often up to 46.1 µM), for the others: top-dose activity, positive = more growth; 270,000 tested, 0.4% active; AID 2326; also: actives are rising curves; nearly all actives have a fitted effect of over 50% in size
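In this qHTS, NS1 from influenza A is expressed in budding yeast, where it slows growth. Cells are switched from glucose to 2% galactose medium (pH 6.0, -URA), treated with compound, and growth recovery is read at OD600.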
An asterisk follows results filed as active; ? = inconclusive; . = not tested or not shown; [ ] = remark or other dose. Unless noted, calls follow the shape of the dose curve; as a rule, active means well fitted rising curve with a large enough effect; inconclusive means small, poorly fitted or top-dose-only effect; inactive means no such curve, though single readings can be large or run the other way. Potency is read from the fitted curve at half-maximal effect.

molecule | Lassa entry inh | Cruzain noTriton | Marburg entry inh | SARS PLP yeast | RE007 growth inh | Cruzain Triton | StopGo reporter | NS1 function inh
O=C1NCCN(Cc2cccc(Oc3ccccc3)c2)C1CC(=O)N1CCCCC1 (configuration not stated) | -1.6% | . | -8.6% | -1.4% | -3.4% | . | -27.4% | 2.9%
CCCNC(=O)CSc1nc(COc2ccccc2)nc2ccccc12 | 11.0% | . | 22.4%[46.1 µM] | -1.0% | -10.1% | . | -24.8% | -5.0%
COc1ccc2cc(CCNS(=O)(=O)c3ccc(C)cc3)c(=O)[nH]c2c1 | -7.7%[46.1 µM] | 0.5% | -2.0%[46.1 µM] | . | . | -4.2% | -18.0% | .
O=C(CN(C1CCCCC1)S(=O)(=O)c1ccc(Cl)cc1)NCc1ccncc1 | 7.8% | -1.7% | 16.3% | -3.4% | 5.6% | -7.7% | . | -15.0%
O=C(Nc1cc(Cl)ccc1N1CCOCC1)c1cccnc1 | 19.5% | . | 21.4%[46.1 µM] | 1.3% | 0.2% | . | -1.5% | -0.6%
Cn1c(=S)c2[nH]c(SCCN)nc2n(C)c1=O | 24.5% | . | -0.4% | . | -18.7% | . | -6.6% | .
COC(=O)C1=C(C)N=C2SC(C)C(=O)N2C1c1cccc(F)c1 (configuration not stated) | ? | 6.1% | -9.7% | 6.6% | 5.6% | 1.5% | ? | ?
O=C1CCCc2oc3c(c21)CCCC3 | 1.7% | . | 12.5%[46.1 µM] | 0.7% | 14.7% | . | -5.4% | .
Cc1oc(-c2cccc(Cl)c2)nc1CN1CCCC(C(=O)NCc2ccc(Cl)cc2)C1 (configuration not stated) | 24.2%[46.1 µM] | 0.1% | 1.2%[46.1 µM] | . | . | 1.0% | ? | .
CCc1nnc(NC(=O)C2CCCN2S(=O)(=O)c2ccc(F)cc2)s1 (configuration not stated) | -16.8% | 6.6% | -9.4% | 1.5% | 157.0% | 7.1% | -15.4% | 3.5%
O=C(c1ccc2c(c1)N(Cc1ccc(Cl)cc1)C(=O)c1ccccc1S2(=O)=O)N1CCC(Cc2ccccc2)CC1 | ? | 12.6µM* | ? | . | . | -2.6% | -19.1% | .
O=[N+]([O-])c1ccc(N2CCCC2)nc1N1CCCC1 | -5.7% | . | ? | -0.2% | -1.8% | . | -13.8% | -3.5%

Following part.
molecule | Lassa entry inh | Cruzain noTriton | Marburg entry inh | SARS PLP yeast | RE007 growth inh | Cruzain Triton | StopGo reporter | NS1 function inh
CCN1CCN(c2cc(C)c3cc(NC(=O)c4cccc(Cl)c4)ccc3n2)CC1 | ? | -17.6% | ? | . | . | -7.7% | 14.2% | .
COc1ccc(-c2csc(N(CCCN(C)C)C(=O)c3ccc(C)cc3)n2)cc1 | -0.4%[46.1 µM] | . | ? | -1.3% | -19.0% | . | 11.0% | 5.2%
Cc1cc(N2CCN(C)CC2)nc2ccc(NC(=O)Nc3ccc(F)cc3)cc12 | ? | 7.1% | . | . | . | -1.5% | 17.9% | .
Cc1ccc(C(=O)c2coc3cc([N+](=O)[O-])c(O)c([N+](=O)[O-])c23)cc1 | ? | 6.4% | -5.9% | -88.9% | 0.9% | -12.6% | -12.9% | -20.3%
CC(C)Cc1cc(C(=O)NCc2cccs2)no1 | . | -0.1% | . | -6.2% | -3.1% | -6.3% | 82.6%[activator] | 0.6%
COc1ccccc1C(=O)N(Cc1ccc(C)o1)C1CCS(=O)(=O)C1 (configuration not stated) | 2.2% | . | ? | 24.5% | 3.2% | . | -14.0% | 2.7%
Cc1ccc(-n2cc(CN3CCC(O)(c4ccccn4)CC3)c(-c3ccc(F)cc3)n2)cc1 | ? | . | 3.98µM* | -1.4% | -5.0% | . | -28.6% | 8.0%
Cc1cc(C(F)F)n2nc(C(=O)Nc3cccnc3Cl)nc2n1 | 13.4% | -2.5% | 0.5% | 2.2% | 20.2% | 7.1% | -5.0% | -4.8%
CO/N=C/NC(=O)Cc1cn(-c2ncc(C(F)(F)F)cc2Cl)c2ccccc12 | ? | ? | ? | 2.3% | 17.3% | -11.6% | ? | 0.0%
COc1ccc(OC)c(NC(=O)Cc2c(C(=O)O)n(C)c3ccccc23)c1 | 5.8%[46.1 µM] | . | ? | -2.2% | 0.7% | . | -4.0% | ?
O=[N+]([O-])c1ccc(N2CCOCC2)cc1NC(c1ccccc1)c1ccccc1 | -6.7% | ? | ? | 11.9% | -12.3% | -6.0% | -20.8% | 10.9%
CCN(CC)c1ccc(/C=N/n2nnnc2N)c(O)c1 | 1.4% | -12.3% | -16.8% | -8.7% | -17.6% | -8.9% | 0.0% | -2.0%

Later entries
molecule | Lassa entry inh | Cruzain noTriton | Marburg entry inh | SARS PLP yeast | RE007 growth inh | Cruzain Triton | StopGo reporter | NS1 function inh
COc1ccc(NC(=O)CCn2cccc2)cc1 | 26.6% | 4.9% | 0.0% | 1.4% | 3.3% | -1.8% | 34.2%[activator] | 3.8%
O=c1c2cc([N+](=O)[O-])ccc2nc(CN2CCOCC2)n1-c1ccccc1F | . | -1.8% | . | -3.1% | . | -2.9% | . | 9.0%
CN1CCOC1c1ccc(C2OCCN2C)cc1 (configuration not stated) | 0.1% | . | 1.0% | . | 9.2% | . | -12.7% | .
COc1ccc(/C=N/NC(=O)c2cc(Br)ccc2O)cc1Cn1cc(Cl)cn1 | 0.3% | ? | ? | -0.5% | 0.7% | -13.1% | -7.1% | 5.3%
Cc1noc(/C=C/c2cccnc2)c1[N+](=O)[O-] | . | . | . | -12.4% | ? | . | 14.1µM* | -79.5%
COc1cc(C(=O)OCC(=O)NC(=O)NCc2ccccc2)ccc1OC(F)F | -6.5% | . | 0.8% | 0.1% | -11.0% | . | -15.3% | .
CCNc1nc(NC(C)(C)C)nc(N2CCCCC2)n1 | ? | . | 2µM* | -1.4% | -3.9% | . | -28.8% | -44.9%
CCOc1ccccc1N(C)C(=O)c1cc(S(=O)(=O)NCCc2ccc(Cl)cc2)ccc1F | ? | 0.0% | . | . | . | -0.2% | 36.0%[activator] | .
Cc1ccc(NC(=O)CSc2ncc3c(n2)-c2ccc(Cl)cc2N(C)S3(=O)=O)cc1F | 25.4%[46.1 µM] | -3.7% | . | . | . | 2.4% | -16.3% | .
COc1cc(OC)cc(C(=O)Nc2ccc(-c3nc4ccccc4s3)cc2C)c1 | -0.8%[46.1 µM] | -11.3% | 7.9%[46.1 µM] | . | . | 0.5% | 7.0% | .
COc1cccc(C(=O)Nc2cccc(C(C)=O)c2)c1 | ? | -5.8% | ? | 0.7% | 1.8% | -0.7% | 55.8%[activator] | -16.2%
Cc1ccc(NC(=O)CSc2nccn2C)cc1S(=O)(=O)N1CCOCC1 | 21.7% | 5.3% | 24.5% | -6.0% | 0.7% | -0.3% | 15.1% | 14.3%

(next part)
molecule | Lassa entry inh | Cruzain noTriton | Marburg entry inh | SARS PLP yeast | RE007 growth inh | Cruzain Triton | StopGo reporter | NS1 function inh
CCOc1cc(Br)c(C(=O)O)cc1OCC | 0.4% | -1.3% | 0.0% | 4.2% | 14.0% | 3.3% | 19.1% | -1.8%
COc1cccc(C(=O)Nc2cccc3ccccc23)c1OC | ? | . | 8.91µM* | -7.6% | -18.8% | . | 21.0% | -35.2%
CC(C)Cn1c(=O)c2c(nc3n2CCS3)n(C)c1=O | -6.3% | . | -21.9%[46.1 µM] | 0.9% | 15.8% | . | 6.9% | -1.2%
COc1ccc(CNC(=O)CSCc2nc(-c3ccccc3C)oc2C)cc1 | -6.5%[46.1 µM] | 2.6% | 4.2%[46.1 µM] | . | . | -1.3% | 4.5% | .
COc1ccc(Cl)cc1NC(=O)c1cc(-c2cc(C)ccc2O)n[nH]1 | 3.5% | . | -13.3%[46.1 µM] | -0.4% | -4.4% | . | -0.2% | -5.1%
Cc1ccc(N(CC(O)CN2CCOCC2)S(=O)(=O)c2ccc([N+](=O)[O-])cc2)cc1 (configuration not stated) | ? | . | 5.0%[46.1 µM] | 24.0% | -2.2% | . | -20.5% | 23.6%
CC(C)CNC(=S)N1CCC(c2nc(-c3ccc(F)cc3)no2)CC1 | -18.6% | . | ? | -12.8% | 3.2% | . | ? | 2.0%
Cc1ccc(N(C(=O)c2snc(C(N)=O)c2N)C(C(=O)NCC2CCCO2)c2ccc3ncccc3c2)cc1 (configuration not stated) | -4.3% | . | -25.7% | -4.8% | -2.7% | . | -8.1% | -18.3%
O=S(=O)(c1ccc(Cl)cc1)N1CCC(n2cccc2)CC1 | ? | . | -24.0%[46.1 µM] | -1.2% | -0.4% | . | 4.4% | -6.4%
COc1ccc(/C=N/N=C/c2c[nH]c(=O)c(C#N)c2Nc2ccccc2)cc1 | 6.0% | 2.3% | ? | 20.5% | 6.8% | -8.3% | -8.7% | 5.6%
CCOC(=O)C1(CCCc2ccccc2)CCN(C(=O)c2cncs2)CC1 | ? | . | -25.4%[46.1 µM] | -1.3% | 13.4% | . | -27.1% | -6.8%
Cc1ccc(-c2ccc(=O)n(CCC(=O)NCc3ccccn3)n2)cc1 | 9.4% | 9.9% | 13.4% | 8.2% | -4.8% | 5.1% | -7.0% | 5.0%

(listing goes on)
molecule | Lassa entry inh | Cruzain noTriton | Marburg entry inh | SARS PLP yeast | RE007 growth inh | Cruzain Triton | StopGo reporter | NS1 function inh
CN(c1ccccc1)S(=O)(=O)c1ccc(Cl)c(C(=O)OCC(N)=O)c1 | 0.5% | . | 0.4% | 1.0% | 2.4% | . | -8.6% | .
CCOC(=O)c1c(S(=O)(=O)NCCc2ccccc2)c(C)n(C)c1C | . | . | . | -0.7% | -1.8% | . | 135.3%[activator] | 3.6%
CC(C)(C)CC(C)(C)NCC(=O)Nc1c2c(nc3ccccc13)CCC2 | . | . | . | -1.1% | -12.5% | . | -7.8% | 2.0%
CC(=O)Nc1cnc(NC(=O)c2cccc(F)c2)cc1C | -1.7% | 5.5% | -26.8%[46.1 µM] | 9.0% | -6.5% | 0.7% | 38.7%[activator] | -3.1%
CSCC(=O)NC1CCCc2c1cnn2-c1ccc(C)c(C)c1 (configuration not stated) | -25.5%[46.1 µM] | . | ? | -1.5% | 0.0% | . | 14.8% | -9.1%

Screening results as filed in PubChem.
